RE007 growth inh: less growth of the S. pombe RE007 Vpr strain. S. pombe RE007 Vpr strain, BacTiter-Glo ATP luminescence, 24 h; control for the full effect not named in the record. Potency, µM (titrated, usually from 92.2 µM), for the others: top-dose activity change, negative = less growth. actives 0.21% (n = 360,000). AID 651644; active = well fitted falling curve with a large enough effect; inconclusive = small, poorly fitted or top-dose-only effect; inactive = no such curve, though single readings can be large or run the other way;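 also: % is scaled to controls: 0 for no effect and ±100 for the full control effect; nearly all actives have a fitted effect of over 50% in size; the assay follows cell death caused by Vpr and the record does not say whether a fall means rescue or toxicity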
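Fission yeast RE007 carrying one integrated HIV-1 vpr copy, seeded at OD 0.01 in PMG+AL medium with 23 nL pinned compound. Grown 24 h at 30 degrees; viability read by BacTiter-Glo luminescence after 5 min.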
Cruzain inh noDet: inhibitors of Trypanosoma cruzi cruzain without detergent; purified cruzain, Z-FR-AMC fluorescence, no detergent; Potency, µM, for the others: max response, negative = inhibition, usual class: inhibitors; actives 2.3% (n = 200,000);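 also: plate controls were enzyme without inhibitor for no effect and buffer without enzyme for full effect; nearly all actives have a fitted effect of over 40% in size; top concentration of the series not given in the record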
Target sequence (P25779 123-467 limits assumed): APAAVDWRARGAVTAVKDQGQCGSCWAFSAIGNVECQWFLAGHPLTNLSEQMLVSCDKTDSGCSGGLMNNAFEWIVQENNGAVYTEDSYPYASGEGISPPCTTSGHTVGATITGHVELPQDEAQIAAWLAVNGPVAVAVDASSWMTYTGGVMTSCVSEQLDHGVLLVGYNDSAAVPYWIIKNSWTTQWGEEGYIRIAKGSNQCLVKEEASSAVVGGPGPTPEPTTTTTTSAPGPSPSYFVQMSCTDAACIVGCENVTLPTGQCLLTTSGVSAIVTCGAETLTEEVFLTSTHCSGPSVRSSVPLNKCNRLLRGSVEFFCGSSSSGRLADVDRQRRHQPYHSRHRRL
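Purified cruzain at 1.5 nM, pre-incubated 15 min with compound at room temperature in 100 mM sodium acetate pH 5.5, 5 mM DTT, 0.00005% Triton X-100. Reaction started with 2 uM Z-FR-AMC; AMC fluorescence increase over 60 s gives rate.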
Cruzain inh Det: inhibitors of Trypanosoma cruzi cruzain with detergent. purified cruzain, Z-FR-AMC fluorescence, 0.01% Triton. AID 1478. actives 0.43% (n = 200,000). P25779. Potency, µM, inactives show max response, negative = inhibition, hits mostly inhibitors;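 also: plate controls were neutral wells for no effect and buffer without enzyme for full effect; nearly all actives have a fitted effect of over 40% in size; top concentration of the series not given in the record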
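Compounds were screened in titration against cruzain (1.5 nM) with 0.01% Triton X-100 to counter colloidal aggregation. Activity was the AMC fluorescence increase over 60 s after adding 2 uM Z-FR-AMC at pH 5.5.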
Marburg entry inh: blocks Marburg virus binding to or entry into cells. Marburg virus pseudotyped entry inhibition, cell reporter; control for the full effect not named in the record; about a third of the inactives were read at about 46 µM. Potency, µM (highest dose often 37.8 µM), for inactives: at the highest dose activity change, negative = inhibition, usual class: inhibitors. actives 1.8% (n = 300,000); active = well fitted inhibition curve with a large enough effect; inconclusive = small, poorly fitted or top-dose-only effect, or effect the other way; inactive = flat fitted curve, though single readings scatter; tested in HEK293 cells; about a fifth of its hits are not listed in these tables; also: % is scaled to controls: 0 for no effect and ±100 for the full control effect; luciferase read-out
StopGo reporter: lowers the luciferase signal of an FMDV 2A StopGo reporter; human cells with a luciferase reporter of 2A StopGo recoding; control for the full effect not named in the record; actives 1.2% (n = 410,000); AID 1159524; Potency, µM (series often up to 57.9 µM), inactives show at the top dose signal change, negative = less light; active = well fitted falling curve with a large enough effect; inconclusive = small, poorly fitted or top-dose-only effect; inactive = no such curve, though single readings can be large or run the other way; tested in HEK293T cells; also: % is scaled to controls: 0 for no effect and ±100 for the full control effect; nearly all actives have a fitted effect of over 45% in size; luciferase light after 4 h
SARS PLpro yeast: blocks SARS-CoV papain-like protease in a yeast assay; Potency, µM (doses to about 32.9 µM), for the others: top-dose activity, positive = growth rescue; AID 485353; S. cerevisiae expressing SARS-CoV PLpro, growth rescue; control for the full effect not named in the record; actives 0.19% (n = 330,000); active means well fitted rising curve with a large enough effect; inconclusive means small, poorly fitted or top-dose-only effect; inactive means no such curve, though single readings can be large or run the other way; also: 0% is about no effect; nearly all actives have a fitted effect of over 55% in size; growth read by luminescence after 48 h
NS1 function inh: blocks influenza NS1 protein function; S. cerevisiae slowed by influenza A NS1, growth recovery by OD600; Potency, µM (top dose mostly 46.1 µM), without a hit: at the highest dose activity, positive = more growth; actives 0.4% (n = 270,000); AID 2326; active means well fitted rising curve with a large enough effect; inconclusive means small, poorly fitted or top-dose-only effect; inactive means no such curve, though single readings can be large or run the other way; also: nearly all actives have a fitted effect of over 50% in size
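OD600 was taken as the measure of yeast growth restored by compound in an NS1-expressing S. cerevisiae strain. Cells had been washed out of glucose medium and diluted 1:100 into galactose -URA medium, pH 6.0.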
Lassa entry inh: Lassa virus entry inhibition | Lassa virus pseudotype entry inhibition, cell reporter; control for the full effect not named in the record | Potency, µM (series often up to 37.9 µM), for inactives: top-dose activity change, negative = inhibition, hits mostly inhibitors | actives 1.2% (n = 300,000) | AID 540256; active means well fitted inhibition curve with a large enough effect; inconclusive means small, poorly fitted or top-dose-only effect, or effect the other way; inactive means flat fitted curve, though single readings scatter; tested in HEK293 cells; also: % is scaled to controls: 0 for no effect and ±100 for the full control effect; nearly all actives have a fitted effect of over 50% in size; luciferase read-out
Starred values were filed as active, the others as inactive; ? = inconclusive; . = not tested or not shown; & = joins results of further samples; [ ] = another dose, or the depositor's remark. Unless noted, calls follow the shape of the dose curve; as a rule, active = well fitted curve in the direction sought with a large enough effect; inconclusive = small, poorly fitted or top-dose-only effect, or another doubt; inactive = no such curve, though single readings can be large; an effect the other way counts as inactive or inconclusive. Potency is read from the fitted curve at half-maximal effect.

Structure	RE007 growth inh	NS1 function inh	StopGo reporter	SARS PLpro yeast	Marburg entry inh	Lassa entry inh	Cruzain inh noDet	Cruzain inh Det
CCOC(=O)CSc1nc2c(sc(=S)n2-c2ccccc2)c(=O)[nH]1	3.0%	-1.1%	-21.6%	9.1%	0.6%	-2.1%	-15.4%	-13.5%
O=C(NCCc1ccco1)c1cc(COc2cccc(C(F)(F)F)c2)on1	-0.8%	-20.9%	-17.2%	-9.6%	-23.4%[46.1 µM]	1.3%[46.1 µM]	.	.
COCc1cc(C)nc2sc3c(c12)NC(c1ccc(O)cc1)N(c1ccc(C)cc1)C3=O (stereo not given)	.	.	-10.0%	.	?	?	13.1%	-11.6%
CC(C)(C)c1ccc(OCC(=O)N2CCC(c3nc4ccccc4s3)CC2)cc1	.	.	0.0%	.	-3.1%[46.1 µM]	28.4%[46.1 µM]	-14.4%	-2.0%
Cc1ccc(C)c(-n2c(SCC(=O)Nc3nnc(C)s3)nnc2-c2ccoc2C)c1	3.4%	-32.1%	-19.9%	-5.5%	-2.2%	-4.0%	0.6%	-2.3%
Cc1ccc(NC(=O)c2ccc(S(=O)(=O)NCc3ccco3)cc2)cc1	3.9%	13.3%	16.8%	-1.5%	8.5%[46.1 µM]	-21.4%[46.1 µM]	.	.
O=C1N=C(N2CCOCC2)S/C1=C1\C(=O)N(Cc2ccccc2)c2ccc(Br)cc21	.	16.2%	.	5.2%	.	.	12.2%	-2.2%
COc1cccc(CCNC(=O)c2cccc(NC(=O)C3=C(C)OCCS3)c2)c1	-4.2%	-13.2%	-5.8%	2.4%	.	.	.	.
O=C(Nc1ccccc1)N(CCCN1CCOCC1)Cc1ccccc1F	11.9%	-1.3%	-13.8%	-6.0%	-5.2%	-0.6%	-17.8%	3.7%
Cc1ccccc1/C=C1\SC(=S)N(/N=C/c2cc([N+](=O)[O-])ccc2O)C1=O	?	.	-15.5%	?	23.3%[46.1 µM]	18.0%[46.1 µM]	.	.
O=[N+]([O-])c1ccc(Nc2ccccc2)nc1	-20.5%	-14.4%	5.0%	6.3%	5.0%	3.2%	-2.6%	-5.3%
Cc1cc(C)c2[nH]c(=O)c(C(c3nnnn3Cc3ccc4c(c3)OCO4)N3CCCCC3)cc2c1 (stereo not given)	-2.6%	-31.6%	0.0%	1.7%	?	15.5%	-22.5%	-3.7%
COc1cccc(C(=O)NCCS(=O)(=O)N2CCC3(CC2)OCCO3)c1	4.3%	.	2.5%	-6.5%	15.8%	16.0%	.	.
Nc1c(C(=O)Nc2nc3ccccc3s2)sc2nc(-c3cccs3)ccc12	3.7%	?	-103.8%	-8.4%	5.8µM*	6.51µM*	7.94µM*	-8.7%
COc1ccc(/C=C/C(=O)Oc2ccc(/C=N/NC(=O)COc3c(C)cccc3C)cc2)cc1	.	12.3%	.	8.6%	.	.	7.94µM*	3.2%
CCOC(=O)C1=C(C)NC(=O)NC1c1cccs1 (stereo not given)	4.7%	1.3%	-7.2%	0.0%	2.6%[46.1 µM]	15.1%[46.1 µM]	.	.
COC(=O)CSC1=C(C#N)C(c2cccc(OC)c2)CC(=O)N1 (stereo not given)	4.7%	1.7%	-24.4%	-0.6%	.	.	9.2%	3.3%
COc1ccc(OC)c2sc(N3CCN(c4ccccc4)CC3)nc12	9.5%	0.9%	5.1%	.	1.3%	-1.4%	.	.
COc1ccc(C(C(=O)NCC2CCCO2)N(C(=O)CNC(=O)c2cccs2)c2ccccc2C)cc1OC (stereo not given)	29.3%	-6.9%	14.8%	0.6%	-3.0%[46.1 µM]	1.9%	.	.
Cc1cc2ncc(S(=O)(=O)c3ccccc3)c(N)n2n1	13.4%	.	0.1%	2.7%	9.8%	-0.2%	.	.
CC1CN(C(=S)c2cccc([N+](=O)[O-])c2)CC(C)O1 (stereo not given)	-9.6%	3.2%	-11.7%	-1.0%	-18.2%[46.1 µM]	-14.9%	.	.
O=C(Nc1ccccn1)c1cccc(S(=O)(=O)N2CCCCC2)c1	-0.8%	2.4%	-9.9%	19.0%	10.0%	0.9%	-1.1%	0.7%
O=C(CNC(=O)c1ccc(Br)o1)Nc1ccc(F)c(S(=O)(=O)N2CCOCC2)c1	1.9%	.	0.1%	1.7%	4.5%	4.2%	.	.
Cn1c(=O)[nH]c(=O)c2c1ncn2CCN1CCCCC1	0.9%	-4.5%	-2.0%	11.5%	-5.5%	13.2%	4.9%	6.2%
CCOc1ccc(N2C(=O)CC(NC3CCN(C(=O)c4cccc(Cl)c4)CC3)C2=O)cc1 (stereo not given)	?	4.0%	3.5%	-23.7%	7.3%[46.1 µM]	0.1%[46.1 µM]	.	.
CCOC(=O)c1cccc(NC(=O)CCc2nc(-c3ccccc3F)no2)c1	-4.7%	-18.8%	?	4.8%	-14.2%&-14.2%[46.1 µM]	-11.3%	10.5%	-13.1%
CCc1cc2c(=O)c(-c3nc4ccccc4n3C)coc2c(CN2CCCC(C)C2)c1O (stereo not given)	0.0%	-0.9%	-8.3%	0.7%	0.8%	-15.0%	.	.
CC(OC(=O)c1cc2c(s1)CCCCC2)C(=O)NC(N)=O (stereo not given)	15.2%	0.2%	0.7%	29.4%	1.4%[46.1 µM]	15.1%[46.1 µM]	1.2%	-3.6%
COc1ccc(C(=O)NCC(=O)N2CCN(c3ccccc3)CC2)cc1	6.6%	-6.3%	4.0%	1.6%	12.6%[46.1 µM]	.	.	.
CCCc1nc(C)c(-c2ccc(OC)c(OC)c2)c(=O)[nH]1	10.2%	6.1%	-15.8%	3.4%	10.7%	0.3%	5.8%	3.2%
COc1cc(CNC(C)C)ccc1OCC(=O)Nc1cccc2ccccc12	-11.7%	4.1%	2.3%	2.7%	-16.2%	3.6%	.	.
COc1cc(-c2nnc(COC(=O)c3cccn3C)o2)cc(OC)c1OC	-11.3%	.	-16.7%	.	27.5%	-21.8%	.	.
COc1ccccc1C(=O)N1CCN(Cc2c[nH]c3ccccc23)CC1	-13.4%	-1.8%	-8.1%	-0.1%	0.8%[46.1 µM]	-16.5%[46.1 µM]	.	.
Cc1ccc(NC(=O)CSc2nc(C)c(Cc3ccccc3)c(=O)[nH]2)cc1	13.8%	.	-18.1%&-9.2%	-1.0%	0.7%&-1.3%[46.1 µM]	5.4%	0.8%	-2.8%
O=C(Nc1cccnc1)C1CC(c2ccc(Cl)c(Cl)c2)=NO1 (stereo not given)	-2.6%	-2.1%	.	-10.1%	?	-13.6%	-3.5%	-4.9%
COC(=O)c1ccc(CN2C(=O)c3ccccc3S2(=O)=O)cc1	-1.8%	-71.4%	-8.3%	-2.7%	17.9%	-14.6%	-8.2%	-0.7%
CCN1CCN(c2ccc(NC(C)=O)cc2Cl)CC1	-6.0%	1.2%	12.4%	15.1%	1.9%	-13.8%	.	.
Cc1ccc(S(=O)(=O)N2CCC(C(=O)N3CCc4ccccc43)CC2)cc1C	0.1%	.	6.9%	-2.0%	18.7%	-15.6%	.	.
CCOC(=O)c1ccc(-c2ccc3[nH]c4ccccc4c(=O)c3c2)cc1F	8.1%	20.7%	19.4%	14.7%	.	.	.	.
CCOc1ccc(C2C(=O)N(C3CCCCC3)CC(=O)N2Cc2ccc(F)cc2)cc1OC (stereo not given)	.	.	0.8%	.	.	13.3%[46.1 µM]	5.0%	0.6%
CCOCCCNC(=O)C1CCN(S(=O)(=O)N2CCCCC2)CC1	-2.1%	-12.4%	-11.9%	-1.5%	-2.0%	.	2.2%	-1.5%
CCn1nc(NC(C)=O)c2cc3cccc(C)c3nc21	3.6%	-6.9%	-16.1%	-0.5%	.	.	.	.
O=c1c2c(nc3nc(NCc4ccc(Cl)cc4)[nH]n13)CCC2	0.6%	.	-3.1%	5.6%	1.0%	7.8%[46.1 µM]	.	.
O=C(CNC(=O)C12CC3CC(CC(C3)C1)C2)OCc1cc(=O)n2cc(Br)ccc2n1	-1.1%	-2.2%	6.0%	3.6%	3.2%[46.1 µM]	3.3%	.	.
CCOC(=O)N1CCN(C(=O)c2ccccc2NC(=O)c2ccccc2Cl)CC1	-10.3%	0.5%	-1.1%	0.7%	26.6%	-12.1%	.	.
COc1ccc(NC(=O)CN2CCCC(C)C2)c([N+](=O)[O-])c1 (stereo not given)	-4.1%	1.0%	-4.8%	2.4%	?	-27.3%	-5.0%	3.7%
CCc1ccc(Sc2cc(C(=O)NCCCN3CCC(C)CC3)c3ccccc3n2)cc1	.	.	-20.2%	.	.	?	-1.7%	1.1%
CC1CCCN(CCCNC(=O)c2ccc3c(c2)N(Cc2ccccc2F)C(=O)c2ccccc2S3(=O)=O)C1 (stereo not given)	-5.8%	-0.8%	2.9%&9.4%	11.6%	?	-19.1%[46.1 µM]	10.3%	0.8%
CC(C)Sc1nnc([C@H](C)NC(=O)OC(C)(C)C)o1	-12.3%	-9.2%	7.0%	-0.4%	?	0.0%	6.7%	0.5%
O=C(CNS(=O)(=O)c1ccc(Br)s1)NCc1ccc(F)cc1	-2.9%	-5.7%	19.0%	-1.2%	-22.3%[46.1 µM]	-2.1%	.	.
S=c1[nH]c2cc(-c3ccccc3)ccc2o1	-8.7%	-101.0%	-15.0%	-11.6%	.	5.6%	.	.
CNC(=O)CSc1nc2nn(-c3ccccc3)c(=O)c-2c2n1CCCCC2	-7.4%	0.2%	-11.5%	4.5%	7.9%	1.4%	-10.1%	0.7%
